Menin-MLL FL inh = qHTS Assay for Inhibitors Targeting the Menin-MLL Interaction in MLL Related Leukemias: Competition With Fluorescein Labeled MLL-derived Peptide | 290,000 tested, under 10 active | Fluorescence polarization, fluorescein-MLL peptide displacement from menin | FP activity change, % at 61.4 µM; inconclusive = falling polarisation curve, or a change in total fluorescence; inactive = total fluorescence flat and polarisation flat or rising; no compound was filed as active; the % refers to the polarisation; negative = inhibition;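 also: % of control where 0% means no effect; inhibitors lower the polarisation; unlabelled MLL peptide was the positive control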
TRPV1 PAM = HTS Assay for Compounds that Act as Potentiators of the Vanilloid Receptor 1 | TRPV1-expressing cells, Fluo-8 calcium influx, capsaicin EC20 potentiation; host cell line not named in the record; control for the full effect not named in the record | actives 0.02% (n = 320,000) | potentiation, % at 8.33 µM; active means potentiation above 80%; inconclusive means 30% to 80%; inactive means below 30%; also: 0% is about no effect
Target sequence (Q8NER1 whole entry, looked up): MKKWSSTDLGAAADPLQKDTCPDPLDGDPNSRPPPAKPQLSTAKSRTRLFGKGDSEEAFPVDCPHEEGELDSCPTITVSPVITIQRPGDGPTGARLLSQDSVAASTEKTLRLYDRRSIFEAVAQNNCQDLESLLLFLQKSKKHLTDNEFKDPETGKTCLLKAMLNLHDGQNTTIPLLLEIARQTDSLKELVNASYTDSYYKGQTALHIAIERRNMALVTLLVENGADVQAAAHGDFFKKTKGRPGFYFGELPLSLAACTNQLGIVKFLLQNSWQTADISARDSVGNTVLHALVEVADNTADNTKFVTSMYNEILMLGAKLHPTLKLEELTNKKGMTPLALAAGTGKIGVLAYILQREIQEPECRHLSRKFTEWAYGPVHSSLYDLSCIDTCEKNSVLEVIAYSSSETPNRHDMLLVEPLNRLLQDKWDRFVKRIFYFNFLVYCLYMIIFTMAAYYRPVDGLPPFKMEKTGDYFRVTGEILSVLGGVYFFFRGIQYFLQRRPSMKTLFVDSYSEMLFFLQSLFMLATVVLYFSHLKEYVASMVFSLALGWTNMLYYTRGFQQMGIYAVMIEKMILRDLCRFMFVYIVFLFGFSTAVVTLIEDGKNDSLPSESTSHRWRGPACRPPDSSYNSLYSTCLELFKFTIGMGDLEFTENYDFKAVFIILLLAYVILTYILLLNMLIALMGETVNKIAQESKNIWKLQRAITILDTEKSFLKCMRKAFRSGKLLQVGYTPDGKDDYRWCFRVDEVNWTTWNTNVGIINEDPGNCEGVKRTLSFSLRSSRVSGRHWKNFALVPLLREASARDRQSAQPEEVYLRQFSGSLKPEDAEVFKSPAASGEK
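TRPV1-expressing cells were cultured overnight at 35.5C and loaded with Fluo-8 calcium dye for 40 to 90 min at room temperature. After a 10 s baseline, compound was added and calcium influx was read kinetically for 3 min (ex 480/em 520 nm).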
ClpP mod = qHTS Assay for Activators of ClpP | ATP-dependent Clp protease proteolytic subunit (Bacillus subtilis (strain 168)), P80244 | purified B. subtilis ClpP, FRET peptide cleavage, 20 min | Potency, µM (doses to about 57.5 µM), inactives show top-dose activity change, negative = active | actives 1.9% (n = 340,000) | AID 651965, 2013; active = well fitted falling curve with a large enough effect; inconclusive = small, poorly fitted or top-dose-only effect; inactive = no such curve, though single readings can be large or run the other way; also: potency is read from the fitted curve at half-maximal effect; the source files actives as falling curves though it sought activators and does not explain the sign; nearly all actives have a fitted effect of over 65% in size; many hits overshoot -100%
Target sequence (P80244 whole entry, looked up): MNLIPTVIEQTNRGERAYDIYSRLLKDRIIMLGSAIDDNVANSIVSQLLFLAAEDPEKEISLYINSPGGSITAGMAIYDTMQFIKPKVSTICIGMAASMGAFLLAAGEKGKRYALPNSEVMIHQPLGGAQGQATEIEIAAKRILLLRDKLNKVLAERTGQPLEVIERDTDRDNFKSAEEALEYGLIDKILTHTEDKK
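Buffer: 100 mM Tris/HCl pH8, 100 mM KCl, 0.05% low protease BSA, 2.5% glycerol, 0.01% Tween-20. ClpP 10 microg/mL final; 20 min RT; delta FRET normalized to ADEP and DMSO controls.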
Sfp inh = qHTS Assay for Inhibitors of Bacillus subtilis Sfp phosphopantetheinyl transferase (PPTase). 4'-phosphopantetheinyl transferase ffp (Bacillus subtilis), Q9F4F7. Biochemical Sfp PPTase activity, qHTS. Potency, µM, without a hit: max response, negative = inhibition, actives largely listed as inhibitors. actives 3.5% (n = 310,000). AID 1490, 2009; active = well fitted inhibition curve with a large enough effect; inconclusive = small, poorly fitted or top-dose-only effect, or another doubt; inactive = no such curve, though single readings can be large or run the other way;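 also: the enzyme is Sfp with the accession as filed and its product quenches rhodamine fluorescence; potency is read from the fitted curve at half-maximal effect; 0% = enzyme reaction without inhibitor and -100% = no enzyme wells; top concentration of the series not given in the record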
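With Hepes-Na pH 7.6 buffer containing 10 mM MgCl2, Sfp (15 nM) modified BHQ-2-YbbR (12.5 uM) using rhodamine-CoA (5 uM). Two reads 30 minutes apart at 525/598 nm yielded each well's rate.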
TRPML1 inh = qHTS for Inhibitors of the Human Mucolipin Transient Receptor Potential 1 (TRPML1). Mucolipin-1 (Homo sapiens), Q9GZU1. TRPML1-inducible cells, Ca2+ dye fluorescence, FDSS; hits give low values; inhibition of EC80 agonist-evoked calcium signal. activity change, negative = inhibition, % (test concentration not listed). actives 0.02% (n = 390,000); in the data active means activity change below about -50%; inconclusive means about -30% to -50%; inactive means above about -30%;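 also: stimulus is agonist 54-4 at its EC80 concentration; % is scaled to controls: 0 for no effect and ±100 for the full control effect; compound concentration not given in the record; the text of the record puts the active cut at -80%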
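Calcium fluorescence in TRPML1-DL cells induced overnight with Tet: a 110 s read after compound pin addition, then a 110 s antagonist read after challenge with 54-4 at 4 uM final (EC80).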
PINK1 expr mod = A Quantitative High throughput Screen to Identify Chemical Modulators of PINK1 Expression; PINK1 immunofluorescence, high-content cytometry, 24 h; Potency, µM (series often up to 76.6 µM), inactives show at the highest dose activation (PINK1 increase), actives largely listed as activators; actives 0.2% (n = 410,000); AID 624263, 2012; active = well fitted activation curve with a large enough effect; inconclusive = small, poorly fitted or top-dose-only effect; inactive = flat fitted curve, though single readings scatter; cell line not stated here;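 also: potency is read from the fitted curve at half-maximal effect; % of control where 0% means no effect; nearly all actives have a fitted effect of over 65% in size; a mitochondrial uncoupler was the plate control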
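A stable cell line was treated with compounds at 5 concentrations for 24 hours, with CCCP as control. PINK1 levels and mitochondrial localization were measured by immunofluorescence with mitochondrial, cell and nuclear markers after fixation, read by laser-scanning cytometry.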
TRPML1 agonist = qHTS for Agonists of the Human Mucolipin Transient Receptor Potential 1 (TRPML1); TRPML1-expressing cells, Ca2+ dye fluorescence, FDSS; host cell line not named in the record; reference of the full effect not given here; activation, % (concentration not given with the values); actives 0.12% (n = 410,000); AID 624414, 2012; in the data active = activation above about 50%; inconclusive = about 30% to 50%; inactive = below about 30%; also: 0% is about no effect; the text of the record puts the active cut at 80%
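Cells: TRPML1-DL, 1X Tet inducer, ~16 h at 37 degrees C/5% CO2. Dye: ABD Ca8 no-wash + quencher, 45-90 min RT. Read: 10 s baseline, compound add, 110 s agonist phase; 54-4 EC80 (4uM final), 110 s antagonist phase.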
* marks the source's active call; other numbers are inactive results; ? = inconclusive; nt = not tested or not shown; & = joins results of further samples; [ ] = dose if it differs, or a comment. Random draw from the library (roughly 4.4% active in at least one column).

compound	Menin-MLL FL inh	TRPV1 PAM	ClpP mod	Sfp inh	TRPML1 inh	PINK1 expr mod	TRPML1 agonist
O=[N+]([O-])c1ccc(/C=N/NS(=O)(=O)c2ccc(Cl)cc2)o1	4.2	15	?	-14%	0	0.2%	-0.1
O=C(NCCCCO)c1ccc2c3c(cccc13)CC2	-3.2	5	0.7%	9%	26	-1.9%	-0.8
O=C(CCn1ccnc1)Nc1ccc2ccccc2c1	3.2	-3	171%	10%	35	0.7%	-0.9
C=CCNC(=S)NNc1nc(N2CCCC2)nc(N2CCCC2)n1	4.6	-18	-2.7%	40µM*	22	-1.0%	-0.4
CN1C(=O)N(CC(=O)NCc2ccc(Cl)cc2Cl)C(=O)C12CCCCC2	nt	-13	-0.1%	nt	43	5.0%	2.6
CCNc1ncc2nc(-c3cccs3)c(=O)n(-c3ccccc3)c2n1	?	nt	nt	17%	nt	?	nt
CC(=O)Nc1ccc(S(=O)(=O)N2CCC(C(=O)NCc3cccnc3)CC2)cc1	nt	4	0.1%	8%	10	1.5%	-0.3
O=C(Cc1ccc([N+](=O)[O-])cc1)Nc1cccc(C(F)(F)F)c1	-2.4	-9	0.5%	21%	18	11%	3.2
Cc1cccc(NC(=O)CN2C(=O)S/C(=C\C(=O)Nc3ccc(Cl)cc3)C2=O)c1	13	8	-1.7%	-10%	2	2.2%	0.2
Cc1cc(C)c(S(=O)(=O)N2CCN(C(=O)c3c(C)nn(-c4ccccc4)c3Cl)CC2)c(C)c1	nt	nt	2.1%	nt	9	-0.3%	1.6
COc1ccc(C(CC(=O)O)NC(=O)Cc2ccccc2)cc1 (configuration not stated)	1.4	-2	-0.5%	18%	-15	-0.2%	3.6
CCOc1ncccc1C(=O)OCC(=O)Nc1ccc(Cl)cn1	nt	nt	nt	nt	-12	0.1%	1.6
CCN=C1S/C(=C\c2cc(Br)ccc2OCC(=O)OCC)C(=O)N1CC	4.6	19	?	?	6	8.2%	3.3
C/C=C(\C)C(=O)N1CC2(CC(c3cccc(NC(=O)CC(c4ccccc4)c4ccccc4)c3)=NO2)C[C@H]1C(N)=O (some centres not stated)	-3.9	-43	nt	-5%	nt	nt	nt
COc1ccccc1NS(=O)(=O)c1cc(C(=O)NC2CCN(Cc3ccccc3)CC2)ccc1C	nt	nt	0.5%	nt	17	0.4%	1.5
C=CCC1(CC=C)CCCN1C(=O)c1cc(COc2cccc(C(F)(F)F)c2)on1	nt	1	-3.1%	20%	36	?	1.2
O=C(O)/C(=C\C(=O)c1ccccc1)Nc1ccccc1	5.2	-7	nt	-27%	nt	nt	nt
O=C(N/C(=C\c1cccnc1)C(=O)N1CCOCC1)c1ccco1	-0.6	-10	nt	-3%	8	0.9%	-0.3
C=C(C)Cn1c(NCCC)nc2c1c(=O)n(C)c(=O)n2C	-1.4	-4	-3.3%	7%	1	-0.7%	-0.8
Cc1cc(C)c(-c2cc(NC(=O)COC(=O)c3ccc(C#N)cc3)n(-c3ccccc3)n2)cc1C	9.8	-2	nt	14%	-4	1.4%	0.2
CC(C)(C)C(=O)Cn1ncc(N2CCOCC2)c(Cl)c1=O	-4.2	7	1.6%	6%	-4	0.4%	-0.4
COc1ccc(C(=O)NC(C)CCc2ccccc2)cc1[N+](=O)[O-] (configuration not stated)	5.7	-2	0.5%	11%	-2	-0.9%	-0.6
COC(=O)CSc1[nH]c2ccc(F)cc2c1[N+](=O)[O-]	1.5	11	-0.9%	?	-6	0.4%	-0.6
O=C(NCc1cccnc1)c1ccccc1NC(=O)c1c(F)cccc1F	nt	10	-0.4%	20%	-9	-0.9%	1.3
CN(C(=O)c1ccccc1OCc1ccc(Cl)cc1)c1ccccc1	nt	9	0.9%	3%	49	11%	1.9
CC(C)C(=O)N1CCN(c2ccccc2NC(=O)c2cccc(Cl)c2)CC1	-2.6	-24	-0.1%	2%	39	-2.2%	1.7
O=S(=O)(c1ccc(F)cc1)n1ccc(-c2cccc(OCc3ccc(Cl)cc3Cl)c2)n1	1.5	nt	-2.0%	7%	-10	0.3%	6.4
COC(=O)c1c(NC(=O)CCCOc2ccc(C(C)(C)C)cc2)sc2c1C(C(=O)OC)CC2 (configuration not stated)	nt	-11	-17%	nt	6	1.7%	0.5
CC1Cn2c(nc3sc4c(c3c2=O)CCC4)N1CCO (configuration not stated)	5.0	10	18µM*	-19%	-9	-1.4%	0.9
COc1ccccc1OCC(=O)NCCCN1CCOCC1	-2.8	-9	nt	20%	-12	1.2%	-0.6
O=C(CN1C(=O)CSc2ccc(C(F)(F)F)cc21)Nc1ccccc1	-2.2	?	?	10%	31	5.8%	1.6
COc1ccc(OC)c(N(CC(=O)NC2CC3CCC2C3)S(=O)(=O)c2ccccc2)c1 (configuration not stated)	nt	-13	nt	12%	12	1.7%	1.1
O=S(=O)(c1cccs1)N1CCc2ccccc2C1	1.1	-2	-1.4%	0%	0	-0.2%	-0.3
CNc1c(NS(=O)(=O)c2ccc(OC)cc2)c(=O)oc2ccccc12	2.3	-1	nt	25%	-12	3.1%	2.0
COc1ccc(Cc2nnc(NC(=O)Nc3ccccc3OC)s2)cc1	-3.9	4	nt	12%	19	5.8%	0.3
OC(COCc1ccccc1)CN1CCc2ccccc2C1 (configuration not stated)	0.3	-5	1.4%	4%	-11	0.8%	0.4
Cc1cccc(N(C(=O)CCC(=O)Nc2nccs2)C(C(=O)NC(C)(C)C)c2ccc(O)cc2)c1 (configuration not stated)	3.3	1	nt	12%	-1	4.2%	0.8
CCn1c(SCc2ccc(C(=O)OC)o2)nc2sc3c(c2c1=O)CCCC3	0.7	11	0.3%	35µM*	2	7.7%[38.3 µM]	1.6
CN(C)S(=O)(=O)N(CC(=O)NCCSCc1ccc(Cl)cc1Cl)c1ccccc1	nt	nt	-0.4%	nt	1	-0.7%	2.4
Cc1ccc(SCCC(=O)NCc2ccncc2)cc1	-4.7	-3	nt	17%	0	0.2%	0.5

Limited to TRPML1 agonist and Menin-MLL FL inh, for two of the compounds above:
Compound | TRPML1 agonist | Menin-MLL FL inh
OC(COCc1ccccc1)CN1CCc2ccccc2C1 (configuration not stated) | 0.4 | 0.3
Cc1cccc(N(C(=O)CCC(=O)Nc2nccs2)C(C(=O)NC(C)(C)C)c2ccc(O)cc2)c1 (configuration not stated) | 0.8 | 3.3

(listing goes on)
compound	Menin-MLL FL inh	TRPV1 PAM	ClpP mod	Sfp inh	TRPML1 inh	PINK1 expr mod	TRPML1 agonist
COc1nc(NCc2cccnc2)nc(OC)n1	-4.0	22	-1.1%	9%	-8	7.6%[38.3 µM]	-0.2
N#Cc1c(N)sc(=S)c2c1CCN(Cc1ccccc1)C2	?	?	nt	3.5µM*	nt	nt	nt
Cc1ccc(-n2c(-c3ccncc3)n[nH]c2=S)c(C)c1	-1.7	-3	0.5%	-26%	3	0.2%	0.0
O=c1[nH]cnc2scc(-c3ccccc3)c12	1.6	-10	-1.1%	6%	-8	-1.5%	0.8
Cc1ccccc1OCCn1cc(/C(N)=N/O)c2ccccc21	-1.3	13	-0.2%	19%	-20	-3.9%[38.3 µM]	1.2
CCOc1cc(C(=O)NCc2ccc(F)cc2)ccc1OCC(=O)N1CCCCC1	nt	11	-5.6%	nt	-21	-0.3%	4.0
Cc1cc(C)cc(N(C(C)C(=O)NCc2ccc3c(c2)OCO3)S(C)(=O)=O)c1 (configuration not stated)	0.9	1	nt	17%	5	-0.9%	1.2
CCC1CCCCN1C(=O)c1ccc([N+](=O)[O-])o1 (configuration not stated)	1.7	7	nt	19%	-3	-2.7%	0.2
CN(Cc1cnc2nc(N)nc(N)c2n1)c1ccc(C(=O)N[C@@H](CCC(=O)O)C(=O)O)cc1	?	nt	4.8%	?	1&-5	-1.2%&1.4%&-1.2%	-0.7&-0.7&-0.4
CCCCOC(=O)c1ccc(N2C(=O)CC(N3CCN(C/C=C/c4ccccc4)CC3)C2=O)cc1 (configuration not stated)	1.9	?	-1.1%	10%	-4	-0.9%	-1.1
COc1cc(OC)c(S(=O)(=O)NCc2ccco2)cc1S(=O)(=O)NCc1ccco1	-0.8	8	-0.8%	-28%	-7	0.0%	-0.7
COc1ccc(-c2cc(-c3cccs3)c(C#N)c(SCC(=O)NCc3ccccc3)n2)cc1	0.1	9	2.3%	-3%	37	3.6%	0.4
O=C1c2ccccc2NC(c2ccccc2)N1/N=C/c1ccccc1 (configuration not stated)	-1.0	0	-1.5%	10%	17	0.0%	1.4
N#Cc1cc2nc(O)c(O)nc2cc1[N+](=O)[O-]	1.3&-0.3	-1	-11%	14%	-7	0.0%	0.7
CCOc1ccc(S(=O)(=O)N/N=C(\C)c2ccc(OC)cc2OC)cc1	2.4	-3	nt	5%	0	-1.1%	1.6
Cc1cccc(C)c1NC(=O)C1(NC(=O)Cn2cccc([N+](=O)[O-])c2=O)CCCCC1	-1.3	1	-11%	6%	-1	-0.5%	-0.6
CCCn1c(SCC(=O)N2CCCCC2)nnc1C(C)C	-3.4	-3	nt	13%	7	-0.1%	0.9
CC(C)(C)c1cc(N)n2nc(C(C)(C)C)cc2n1	3.2	8	?	23%	19	3.5%	1.3
Cc1cccc(C)c1NC(=O)c1ccc([N+](=O)[O-])s1	8.4	2	nt	?	-7	?	0.0
Cc1ccc(OCc2nc(-c3cccs3)no2)c([N+](=O)[O-])c1	2.1	-3	nt	8%	-10	-0.2%	2.7
Cc1ccc(-n2c(C)cc(/C=N/NC(N)=S)c2C)cc1	0.8	-8	-4.9%	-10%	20	0.7%	1.1
CCn1ncc(C(=O)Nc2ccc([N+](=O)[O-])cc2OC)c1C	nt	nt	-0.3%	nt	53	0.5%	0.5
